# Env fusion inh: inhibitors of HIV Env-mediated cell fusion | hit rate 1.1% among 360,000 | HeLa-JRFL Env/CEM21 cell fusion, luciferase | inhibition, % at 12.3 µM | AID 651610;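 active = mean replicate inhibition score of at least 50 and every replicate individually at or above 50; inconclusive = only one of the two criteria met; inactive = mean below 50 and not all replicates reaching 50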;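 also: 0% = plate neutral controls and 100% = maraviroc near 300 nM; one replicate is shown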
# MT1-MMP act inh: MT1-MMP (human) activation inhibition; P50281; HT1080 RFP-PRO-GFP cells, GFP/RFP ratio fluorescence, overnight; percent of plate control window, DMSO zero; GFP/RFP ratio change, % at 20 µM; hit rate 0.061% among 360,000; AID 651647;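 active = GFP/RFP ratio change of at least 30% with cell ATP level not reduced by more than half and red fluorescence within 50% of control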; also: strong numbers were not always called active
#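 system = RFP-PRO-GFP reporter HT1080 cells | dosing = 20 µM single dose, 1% DMSO | timing = overnight cell settling, then overnight compound exposure, 37 °C, 5% CO2 | read-out basis = GFP/RFP fluorescence ratio | controls = DMSO and RFP-L50D-GFP cell wells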
# CSC inhib: cancer stem cell inhibition; cancer stem cell-like cells viability, luminescence; inhibition, % at 7.5 µM; hit rate 1.1% among 300,000;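 active = mean at 75% or more and at least half the replicates too; inconclusive = mean and replicates disagree; tested in HMLE shEcad cells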;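 also: 0% = median of negative and 100% = median of positive control wells; the first replicate is given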
# Yeast UUG start: yeast start codon fidelity modulation | S. cerevisiae UUG-firefly luciferase reporter, luminescence/redox ratio | activity score, % at 18.7 µM | hit rate 0.13% among 350,000;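 active = replicate mean at a twofold rise or more, about +100% in these data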;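 also: firefly luciferase made from a UUG start codon reports start codon fidelity; reporter light over untreated wells divided by growth signal over untreated wells; some hits fall short of that in this replicate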
# eIF4H inh: inhibitors of RNA binding by human eIF4H | AID 2012 | eIF4H fluorescence polarization binding assay | hit rate 0.94% among 290,000 | Q15056 | inhibition, % at 35 µM;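 active = 50% or more with normal probe brightness, or confirmed in later tests; inconclusive = above 50% with abnormal brightness, or retests that disagree; inactive = below 50% or failed in later tests; about a fifth of its hits are not listed in these tables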;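 also: calls also rest on retests at 20 µM and on dose response follow-up; 0% = protein and probe with vehicle and 100% = probe without protein; strong numbers were not always called active; many hits fall short of the cut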
# Rce1 inh: inhibitors of yeast Ras-converting enzyme; Q03530; yeast membranes, quenched prenylated peptide cleavage fluorescence; calls only; hit rate 0.27% among 290,000;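 active = fall in fluorescence gain of 50% or more versus controls, with final raw signal at or below 3038400; inconclusive = same 50% fall but final raw signal above 3038400; inactive = fall in fluorescence gain under 50%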;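 also: plate controls were neutral control wells for no effect and wells lacking membranes for full effect; tested at 10 µM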
# PABP FP inh: PABP-poly(A) binding inhibition; hit rate 1% among 290,000; PABP-poly(A) RNA binding, fluorescence polarization; inhibition, % at 35 µM; AID 2014;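 active = 50% or more with normal probe brightness, or confirmed in later tests; inconclusive = above 50% with abnormal brightness, or retests that disagree; inactive = below 50% or failed in later tests; about a fifth of its hits are not listed in these tables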;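 also: calls also rest on retests at 20 µM and on dose response follow-up; controls were probe without protein and protein plus probe with vehicle; some compounds called inactive have numbers as strong as hits; many hits fall short of the cut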
# Target sequence (P11940 whole entry, looked up): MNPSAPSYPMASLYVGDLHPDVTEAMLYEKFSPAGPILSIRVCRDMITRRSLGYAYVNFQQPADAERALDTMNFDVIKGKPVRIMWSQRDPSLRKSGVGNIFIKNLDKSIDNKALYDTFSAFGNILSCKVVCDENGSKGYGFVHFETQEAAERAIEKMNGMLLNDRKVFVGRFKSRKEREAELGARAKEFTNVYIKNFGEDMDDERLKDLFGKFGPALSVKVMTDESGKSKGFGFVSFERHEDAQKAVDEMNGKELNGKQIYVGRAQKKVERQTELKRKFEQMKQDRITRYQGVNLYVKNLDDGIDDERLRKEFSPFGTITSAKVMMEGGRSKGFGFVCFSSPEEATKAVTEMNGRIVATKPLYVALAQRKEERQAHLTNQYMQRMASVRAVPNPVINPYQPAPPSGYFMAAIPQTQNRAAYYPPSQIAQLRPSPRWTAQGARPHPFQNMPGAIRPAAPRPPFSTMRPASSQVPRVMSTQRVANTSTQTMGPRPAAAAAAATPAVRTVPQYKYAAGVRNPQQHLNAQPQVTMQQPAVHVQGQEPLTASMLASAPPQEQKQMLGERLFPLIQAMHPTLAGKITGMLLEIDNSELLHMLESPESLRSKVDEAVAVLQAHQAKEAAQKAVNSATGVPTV
# eIF4H inh retest: second read-out of eIF4H inh, no call of its own (marks repeat the call); inhibition, %; compound at 20 µM; confirmation average;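 mean of two retest wells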
# PABP FP inh retest: further read-out of PABP FP inh, marked with its call; inhibition, %; compound at 20 µM; confirmation repeats;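 mean of two retest wells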
# MT1-MMP act inh RFP: second read-out of MT1-MMP act inh, no call of its own (marks repeat the call); RFP signal change, %; measured here: RFP expression control read;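 0 = vehicle wells; hits needed this value within 50% of zero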
# The depositor's hits bear a star; i = inactive; ? = inconclusive; · = not tested or not shown; & = joins results of further samples. An excerpt; rates above refer to the full screens.
SMILES,Env fusion inh,MT1-MMP act inh,MT1-MMP act inh RFP,CSC inhib,Yeast UUG start,eIF4H inh,Rce1 inh,PABP FP inh,others
COc1ccccc1N1CCN(Cc2c(F)cccc2F)CC1,·,-1,1,-4,-8,4,i,0,
O=C(c1cccnc1)C1CCCN(Cc2nc(-c3cnccn3)no2)C1 (centres undefined),12,-2,2,-11,-9,-6,i,-5,
NNC(=O)c1ccc(Cl)cc1,17,3,6,-16,-7,-15,i,-21,
Clc1ccc(COC(Cn2ccnc2)c2ccc(Cl)cc2Cl)c(Cl)c1 (centres undefined),7,-8&-10,-16&-15,102*,-36&-30,-11,i,5,
Cc1nn(CC(C)C)c(Cl)c1C(=O)NC1CCCC1,-28,-1,1,·,-8,·,·,·,
CC(C)CC(=O)NC(Oc1ccc(Cl)cc1)C(Cl)(Cl)Cl (centres undefined),9,-2,3,·,-8,-8,i,0,
Cc1cccc(C)c1-n1nnnc1C(CCc1ccccc1)N1CCC2(CC1)C(=O)NCN2c1ccccc1 (centres undefined),-43,-5,-8,·,-15,·,·,·,
CCn1c(O)c(C(c2ccccn2)c2c(O)n(CC)c(=S)[nH]c2=O)c(=O)[nH]c1=S,·,0,4,0,-9,4,i,8,
CSc1ccc(C(=O)C2CCCN(Cc3cc4ccccc4[nH]3)C2)cc1 (centres undefined),-11,-1,-2,-1,-2,-6,i,-1,
CC(=NCc1ccc2c(c1)OCO2)c1c(O)n(Cc2ccccc2)c(=O)[nH]c1=O,-5,0,-4,-21,-10,0,i,-7,
O=C1CC(=O)N(c2cccc(Br)c2)C(=O)N1,-5,-11,4,-14,-6,77,i,41*,eIF4H inh retest=26;PABP FP inh retest=60*
O=C(COc1ccccc1)NCCc1cnc[nH]1,3,2,3,1,-8,4,i,4,
NC(=O)CSP(=O)(c1ccccc1)c1ccccc1,10,3,10,3,-17,-6,·,-1,
C=Cn1ccnc1P(=S)(c1c(C)nn(-c2ccccc2)c1C)c1nccn1C=C,-15,-9,-3,-2,-21,-1,i,3,
CCN(CC)C1=NC(=[N+](CC)CC)c2ccccc21,?,-5,-21,-5,-15,-10,i,1,
O=C(O)C1C2c3ccccc3C(O)C1(C(=O)O)c1ccccc12 (centres undefined),4,0,3,·,-13,·,·,·,
C=CCNC(=S)Nc1ccc(OC(=O)Nc2ccc(Cl)c(Cl)c2)cc1,15,1,-1,·,1,4,·,6,
CC(CCc1ccccc1)NC(C)C(O)c1ccc(O)cc1 (centres undefined),-22,-2,-3,-8,-10,-4,i,6,
CC1=C2CCC3C(CCC4=CC(=O)CCC43C)C2CC1 (centres undefined),-2,3,-5,·,-13,·,·,·,
CCN(CC)CCCN=Cc1c(O)n(CCc2ccc(OC)c(OC)c2)c(=O)[nH]c1=O,-44,1,3,-2,7,0,·,-5,
CC1(C)C(C(=O)N2CCN(C(=O)c3ccccc3)CC2)C1(C)C,-3,0,0,-16,-7,-6,·,-3,
O=C(Nc1ccncc1)c1cccn(Cc2ccccc2)c1=O,56*,-1,-25,1,·,1,i,2,
CCN(C(=O)COC(=O)c1cn(C)c2ccccc12)c1ccc(F)cc1,·,1,0,-10,25,·,·,·,
CC(c1ccccc1)n1cncc1C(=O)O (centres undefined),·,0,4,-3,-16,-6,i,6,
CCc1ccc(NC(=O)CN2CC(c3ccccc3)CC2=O)cc1 (centres undefined),0,-2,1,-11,-7,-10,i,3,
OCC12COC3c4ccccc4C(OC1)N32 (centres undefined),-56,11,1,2,16,2,i,3,
COC(=O)C1=C(c2ccc(F)cc2OCc2ccccc2)C[C@@H]2CC[C@H]1N2C(=O)NCC1CC1,-51,-1,-2,11,0,·,·,·,
CCc1ccc(NC(=O)C(C)OC(=O)c2c(C)nn(Cc3ccccc3)c2Cl)cc1 (centres undefined),-2,-1,-4,3,-12,-6,i,-15,
CN1CCN(CCOC2c3ccccc3CSc3ccc(Cl)cc32)CC1 (centres undefined),5,-4,-5,16,-1,-7,i,11,
COC(=O)C1=C(c2cccc(OC)c2OC)C[C@@H]2CC[C@H]1N2C(=O)NCC1CC1,0,3,3,-7,-5,·,i,·,
O=C1NC(=O)N(Cc2ccco2)C(=O)/C1=C\c1ccc(-c2ccc(F)cc2)o1,-135,-14,1,-3,-18,?,i,?,
CCOC(=O)C1(c2ccccc2)Oc2ccccc2C(c2ccc(OC)cc2)=C1C(=O)OC (centres undefined),11,-11,-8,·,-12,·,·,·,
CCOP(=O)(OCC)C(NC(=O)c1cccc2ccccc12)C(Cl)(Cl)Cl (centres undefined),·,2,3,·,·,-4,i,11,
O=C(O)c1ccc(/C=C/c2nc3ccccc3c(=O)n2-c2ccc(Br)cc2)cc1,24,1,-10,7,-3,0,i,-2,
CC(C)(C)n1nnnc1C(c1ccccc1)N1CCC2(CC1)C(=O)NCN2c1ccccc1 (centres undefined),-70,0,-3,·,-3,·,·,·,
Cc1onc(-c2c(Cl)cccc2Cl)c1/C(N)=N/OC(=O)N(C)C,8,1,3,-9,·,-4,·,-3,
O=C(Nc1ccc(F)cc1)N1Cc2ccccc2-n2nncc2C1,7,-1,2,·,-5,·,·,·,
O=[N+]([O-])O[C@H]1CO[C@H]2[C@@H]1OC[C@H]2O[N+](=O)[O-],0,5,4,-7,-17,·,·,·,
Nc1c(C(=O)NCc2ccco2)c2nc3ccccc3nc2n1Cc1ccc(F)cc1,·,-20,10,19,-11,17,i,13,
CN1CCC(c2c[nH]c3ccccc23)C1 (centres undefined),-10,0,3,1,·,4,i,10,

# Nothing new here: entries from further up.
SMILES,Env fusion inh,MT1-MMP act inh,MT1-MMP act inh RFP,CSC inhib,Yeast UUG start,eIF4H inh,Rce1 inh,PABP FP inh,others
CCN(C(=O)COC(=O)c1cn(C)c2ccccc12)c1ccc(F)cc1,·,1,0,-10,25,·,·,·,
CC(c1ccccc1)n1cncc1C(=O)O (centres undefined),·,0,4,-3,-16,-6,i,6,

# The listing continues:
SMILES,Env fusion inh,MT1-MMP act inh,MT1-MMP act inh RFP,CSC inhib,Yeast UUG start,eIF4H inh,Rce1 inh,PABP FP inh,others
O=C(CCC(=O)N1C[C@H]2C[C@@H](C1)c1cccc(=O)n1C2)NCc1ccccc1,·,-1,3,-2,2,8,i,1,
COc1ccc(Cn2c(O)c(/C=N/NC(=O)c3ccccc3O)c(=O)[nH]c2=O)cc1,3,-4,6,40,·,21,i,7,
CC/C(=N\NC(=O)c1ccccc1)c1c(O)n(C2CCCCC2)c(=O)[nH]c1=O,-7,-2,5,5,15,-6,i,-7,
CCOc1ccc(N2C(=O)NC(=O)/C(=C\c3ccc(N4CCCCC4)o3)C2=O)cc1,-5,-129,5,-7,54,?,i,7,
Cn1nnc(CC[N+](C)(C)C)n1,-1,0,0,-3,-4,2,i,11,
CC(C)n1c(O)c(C=NCc2ccccc2)c(=O)[nH]c1=S,-93,1,1,-2,·,-4,i,1,
NC(=S)c1cn(C2OC(CO)C(O)C2O)c2ncnc(N)c12 (centres undefined),90*,-37,-24,56,-27,-3,i,-8,
ClCCOCOCCCl,·,-2,5,-1,-20,·,·,·,
Cn1c(O)c(C=NCCN2CCOCC2)c(=O)[nH]c1=S,19,1,2,-7,-18,5,i,6,
COc1ccc(C(=O)CN2CCOCC2)cc1F,·,-2,2,-14,·,-5,i,-2,
Nc1ccc(N=Nc2ccccc2)cc1,-42,-1,-1,19,·,-3,i,0,
Cc1ccc(-c2ccc(=O)n(CCC(=O)N3CCC4(CC3)OCCO4)n2)cc1,-7,1,2,-14,·,-8,i,8,
COC(=O)C1=CO[C@H](C)[C@H]2CN3CC[C@@]4(C(=O)Nc5ccccc54)[C@@H]3C[C@H]12,·,·,·,1,-4,·,i,·,
ClCC(Br)CBr (centres undefined),·,0,8,-17,-8,·,·,·,
CCOC(=O)C1=C(N)OC2=C(C(=O)CCC2)C12C(=O)N(C)c1ccccc12 (centres undefined),-6,3,4,5,·,0,i,3,
CC1CCN2c3nc4ccccn4c(=O)c3CC3(C(=O)N(C)C(=O)N(C)C3=O)C2C1 (centres undefined),5,-4,1,-14,-11,-12,·,5,
Cc1cccnc1-n1c(-c2ccco2)nc2ccccc2c1=O,·,1,6,-12,-11,1,i,8,
CCOc1cc2c(cc1OCC)-n1cccc1C(c1ccccc1O)NC2 (centres undefined),16,-4,-2,12,12,14,i,-3,
Clc1ccccc1N1CCN(Cc2ccc3c(c2)OCO3)CC1,-7,0,-2,9,-5,2,i,2,
COc1cc(N2C(=O)CC(=O)NC2=O)cc(OC)c1OC,-5,-7,4,-3,-17,46,i,13,

# Next section; the last 3 above are carried over.
SMILES,Env fusion inh,MT1-MMP act inh,MT1-MMP act inh RFP,CSC inhib,Yeast UUG start,eIF4H inh,Rce1 inh,PABP FP inh,others
CCOc1cc2c(cc1OCC)-n1cccc1C(c1ccccc1O)NC2 (centres undefined),16,-4,-2,12,12,14,i,-3,
Clc1ccccc1N1CCN(Cc2ccc3c(c2)OCO3)CC1,-7,0,-2,9,-5,2,i,2,
COc1cc(N2C(=O)CC(=O)NC2=O)cc(OC)c1OC,-5,-7,4,-3,-17,46,i,13,
NNC(N)=O,·,12,4,-11,-10,·,·,·,
COc1ccc(-n2nnnc2C(c2cccc(OC)c2OC)N2CCC(n3c(=O)[nH]c4ccccc43)CC2)cc1 (centres undefined),-62,-4,-7,·,30,·,·,·,
COc1cc2c(cc1OC)CN(c1ccc([N+](=O)[O-])c(C(F)(F)F)c1)CC2,-9,2,-13,0,·,-6,i,10,
Cc1ccc([N+](=O)[O-])cc1,·,2,11,1,-12,·,·,·,
O=C(/C=C/c1ccccc1)NC(=S)N1C[C@H]2C[C@H](C1)c1cccc(=O)n1C2,·,2,3,0,-21,-2,i,2,
COC(=O)N(c1ccccc1)P(=O)(Oc1ccccc1)Oc1ccccc1,27,-1,3,3,12,-6,i,4,
O=C(N/N=C/C1C(=O)NC(=S)N(c2ccccc2)C1=O)c1cc(Br)c(O)c(Br)c1 (centres undefined),12,5,12,-11,·,18,i,12,
c1ccc(CN2CCN(Cc3ccc4ccccc4c3)CC2)cc1,-2,-2,1,34,-1,4,i,2,
Cc1ccc(NC(=O)c2ncn(CCCNCCN3CCOCC3)n2)cc1C,17,3,6,·,-17,·,·,·,
O=C1NC(=S)N(c2ccccc2)C(=O)/C1=C/c1ccco1,8,-20,17,2,-12,8,i,12,
CCOC(=O)C1CCN(C(C)C(=O)c2c[nH]c3ccccc23)CC1 (centres undefined),·,0,2,-6,-24,-3,i,12,
COc1ccccc1N1C(=O)NC(=O)C(CCc2ccncc2)(CCc2ccncc2)C1=O,·,-1,5,-1,-14,6,i,13,
O=c1[nH]c(=S)n(C2CCCCC2)c(O)c1/C=N/N1CCOCC1,7,·,·,4,·,21,i,-10,
O=[N+]([O-])c1cccc2c([As](=O)(O)O)cccc12,11,1,-1,-12,-4,9,i,2,
CCOP(=O)(OCC)C(Cc1ccccc1)NC(C)=O (centres undefined),7,2,3,5,-13,5,i,-3,
COC(=O)C1=C(c2ccc(OCc3ccccc3)cc2)C[C@@H]2CC[C@H]1N2C(=O)NCc1ccc(C(C)(C)C)cc1,-35,-10,-23,·,-8,·,·,·,
COc1ccc(CCNCc2cccn2C)cc1,-56,-3,1,-2,-9,-1,i,4,
Clc1cc(I)cc(Cl)c1NC1=NCCN1,26,0,2,-8,-11,·,i,·,
Cc1ccc2c(c1)CC1(CN2C)C(=O)NC(=O)N(c2cccc(C)c2C)C1=O (centres undefined),-89,-7,2,-11,·,-3,i,12,

# High-throughput results as filed in PubChem BioAssay.
